# High-throughput results as filed in PubChem.
# TRPC4 block: inhibitors of mouse TRPC4 channel; Q9QUQ5; HEK293 TRPC4beta/mu-opioid, DAMGO-evoked Fluo4 calcium flux; active compounds read low; B-score at 10 µM; 300,000 compounds, 0.39% hits; AID 2247;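 active means B-score over 3 SD under the library average, no early fluorescence shift, positive overall ratio signal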
# Target sequence (Q9QUQ5 whole entry, looked up): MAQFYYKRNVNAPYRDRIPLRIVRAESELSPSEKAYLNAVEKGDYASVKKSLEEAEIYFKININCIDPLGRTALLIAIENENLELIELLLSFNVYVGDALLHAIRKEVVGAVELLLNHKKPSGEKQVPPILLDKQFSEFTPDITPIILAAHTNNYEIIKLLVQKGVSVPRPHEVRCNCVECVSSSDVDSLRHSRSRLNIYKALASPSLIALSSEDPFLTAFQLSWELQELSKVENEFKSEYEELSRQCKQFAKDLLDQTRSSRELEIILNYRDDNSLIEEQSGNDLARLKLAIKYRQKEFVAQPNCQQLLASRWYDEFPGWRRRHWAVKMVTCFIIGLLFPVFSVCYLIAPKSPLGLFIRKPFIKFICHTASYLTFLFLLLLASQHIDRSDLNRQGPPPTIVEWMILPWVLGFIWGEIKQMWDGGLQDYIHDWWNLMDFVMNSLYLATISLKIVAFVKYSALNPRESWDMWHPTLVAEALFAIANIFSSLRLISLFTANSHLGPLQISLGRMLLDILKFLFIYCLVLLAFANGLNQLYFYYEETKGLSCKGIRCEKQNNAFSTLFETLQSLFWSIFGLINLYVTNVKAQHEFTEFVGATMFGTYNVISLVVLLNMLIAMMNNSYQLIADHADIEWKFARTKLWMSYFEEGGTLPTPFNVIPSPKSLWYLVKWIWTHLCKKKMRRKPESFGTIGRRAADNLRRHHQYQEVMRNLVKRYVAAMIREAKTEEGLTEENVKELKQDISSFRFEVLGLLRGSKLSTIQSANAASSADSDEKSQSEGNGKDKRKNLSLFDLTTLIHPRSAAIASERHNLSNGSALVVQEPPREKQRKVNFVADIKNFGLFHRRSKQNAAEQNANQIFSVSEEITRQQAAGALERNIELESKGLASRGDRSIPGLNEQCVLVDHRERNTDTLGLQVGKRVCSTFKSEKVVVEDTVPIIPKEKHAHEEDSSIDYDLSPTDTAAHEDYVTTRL
#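 Material: HEK293 cells with stable TRPC4beta plus mu-opioid receptor expression / Probe or stimulus: DAMGO in two steps, submaximal then maximal / Compound: single concentration per test compound / Technique: kinetic Fluo4 fluorescence imaging of calcium influx / Read-out: per-well B score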
# DYRK1A inh: Dyrk1A (rat) kinase inhibition; Q63470; ADP-Glo luminescence, NFATc1 peptide; inhibition, % at 12.5 µM; 310,000 compounds, 0.43% hits; in the data active means inhibition above about 50%;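 further: plate controls were vehicle with enzyme for no effect and no enzyme for full effect; many of its hits are not listed in these tables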
# TRPC4 agonist: TRPC4 (mouse) channel activation; HEK293 TRPC4beta/mu-opioid, Fluo4 calcium fluorescence; active compounds read high; Q9QUQ5; B-score at 10 µM; AID 2237; 310,000 compounds, 0.49% hits;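 active means B-score above 5 SD of library B-scores, and initial fluorescence ratio not above library mean plus 5 SD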;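 further: positive B-score marks a calcium rise read as TRPC4 activation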
#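 Assay system – TRPC4beta and mu-opioid receptor HEK293 stable cells · Measured by – Fluo4 fluorescence, kinetic · Schedule – dye loading 45 min room temperature, 110 s kinetic read · Read-out – B-scored integrated calcium fluorescence ratio · Controls – buffer and maximal DAMGO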
# TRPC4 potent: TRPC4 (mouse) allosteric potentiation | Q9QUQ5 | HEK293 TRPC4beta/mu-opioid, DAMGO EC20, Fluo-4 Ca2+ flux; active compounds read high | B-score at 10 µM | 310,000 compounds, 0.42% hits | AID 2227;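 active means B-score of calcium response area above 5 SD of library B-scores, with initial fluorescence ratio within 5 SD of library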;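 further: B-score of integrated fluorescence ratio over time as area under calcium response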
# PolyA inhibitor: blocks polyadenylation in yeast reporter cells | S. cerevisiae SKY197-pL101 polyadenylation reporter, beta-gal luminescence; efflux-impaired pdr1/pdr3 knockout yeast; score 100 = 6 SD above DMSO | calls only at 12 µM | 300,000 compounds, 0.02% hits | AID 1875;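 active means lowest replicate activity score at least 50, where 100 means six control SD above control mean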;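 further: yeast exposed to compound for 9 h at 30 °C; higher score means more reporter readthrough which indicates perturbed polyadenylation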
# Platelet DG rel: modulates dense granule release in human platelets. inhibition, %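 (compounds screened at 7.5 µM in platelet-rich plasma)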. human platelet-rich plasma, SFLLRN dense granule ATP release, luminescence. 300,000 compounds, 0.22% hits. AID 1663;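 active means mean replicate score, as percent of positive control, at or above 50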
# * marks the source's active call; other numbers are inactive results; i = inactive; · = no result given; & = joins results of further samples. Only part of the results is shown, so the mix of outcomes need not match the whole.
item	molecule	TRPC4 block	DYRK1A inh	TRPC4 agonist
1	CSc1ccc(CCNC(=O)c2cccc3c2C(=O)N(C2CCCCC2)C3)cc1	i	-2	i
2	CC(C)(C)c1ccc(C(O)CCCN2CCC(C(O)(c3ccccc3)c3ccccc3)CC2)cc1 (stereo unspecified)	i	7	i
3	O=C(Nc1cccc(C(F)(F)F)c1)N1CCC(c2nc(-c3ccc(F)cc3)no2)CC1	i	3	i
4	COc1c(C)cc(Br)cc1C(=O)Nc1cccc(-c2nc3ncccc3o2)c1	i	15	i
5	COc1cc2nc(N3CCN(C(=O)C4CCCO4)CC3)nc(N)c2cc1OC (stereo unspecified)	i	11&4	i
6	COc1ccccc1C1CC(c2cccs2)=Nc2ccccc2S1 (stereo unspecified)	i	6	i
7	Cc1cccc(C(=O)Nc2cccc(NC(=O)c3ccccc3)c2)c1	i	-5	i
8	CN1CCN(CCC=C2c3ccccc3Sc3ccc(S(=O)(=O)N(C)C)cc32)CC1	·	8	·
9	CN1CCc2cccc3c2[C@H]1Cc1ccc(O)c(O)c1-3	i	17&24&11	i
10	CCN(C(=O)COc1cc(=O)n(CC)c2ccccc12)c1cc(Cl)ccc1OC	i	10	i
11	COc1cc2nc(N3CCN(C(=O)[C@@H]4CCCO4)CC3)nc(N)c2cc1OC	i	-2	i

item	TRPC4 potent	PolyA inhibitor	Platelet DG rel
1	i	i	0
2	i	i	7
3	i	i	3
4	i	i	13
5	i	i	7&5
6	i	i	-2
7	i	i	-9
8	·	·	·
9	i	i	-1
10	i	i	0
11	i	i	7

# Taken from above:
# In DYRK1A inh, CCN(C(=O)COc1cc(=O)n(CC)c2ccccc12)c1cc(Cl)ccc1OC is listed with 10
# In Platelet DG rel, COc1cc2nc(N3CCN(C(=O)[C@@H]4CCCO4)CC3)nc(N)c2cc1OC is listed with 7
# In DYRK1A inh, CN1CCN(CCC=C2c3ccccc3Sc3ccc(S(=O)(=O)N(C)C)cc32)CC1 is listed with 8
# In DYRK1A inh, COc1ccccc1C1CC(c2cccs2)=Nc2ccccc2S1 (stereo unspecified) is listed with 6
# In DYRK1A inh, CSc1ccc(CCNC(=O)c2cccc3c2C(=O)N(C2CCCCC2)C3)cc1 is listed with -2

# Sorted by value in Platelet DG rel (high to low): 3 from the list above
item | SMILES | TRPC4 block | DYRK1A inh | TRPC4 agonist | TRPC4 potent | PolyA inhibitor | Platelet DG rel
10 | CCN(C(=O)COc1cc(=O)n(CC)c2ccccc12)c1cc(Cl)ccc1OC | i | 10 | i | i | i | 0
6 | COc1ccccc1C1CC(c2cccs2)=Nc2ccccc2S1 (stereo unspecified) | i | 6 | i | i | i | -2
7 | Cc1cccc(C(=O)Nc2cccc(NC(=O)c3ccccc3)c2)c1 | i | -5 | i | i | i | -9

# Compounds shown so far with two or more sulfur atoms (2):
item	molecule	TRPC4 block	DYRK1A inh	TRPC4 agonist
6	COc1ccccc1C1CC(c2cccs2)=Nc2ccccc2S1 (stereo unspecified)	i	6	i
8	CN1CCN(CCC=C2c3ccccc3Sc3ccc(S(=O)(=O)N(C)C)cc32)CC1	·	8	·

item	TRPC4 potent	PolyA inhibitor	Platelet DG rel
6	i	i	-2
8	·	·	·
